Compound activity (PubChem)
LASV entry inh – qHTS for Inhibitors of binding or entry into cells for Lassa Virus; Lassa virus pseudotype entry inhibition, cell reporter; control for the full effect not named in the record; Potency, µM (series often up to 37.9 µM), inactives show at the highest dose activity change, negative = inhibition, most hits filed as inhibitors; actives 1.2% (n = 300,000); AID 540256, 2011; active means well fitted inhibition curve with a large enough effect; inconclusive means small, poorly fitted or top-dose-only effect, or effect the other way; inactive means flat fitted curve, though single readings scatter; tested in HEK293 cells; further: on the % scale 0 is the no-effect control and ±100 the full control effect; nearly all actives have a fitted effect of over 50% in size; luciferase read-out
Cruzain Triton – qHTS Assay for Promiscuous and Specific Inhibitors of Cruzain (with detergent); purified cruzain, Z-FR-AMC fluorescence, 0.01% Triton; Potency, µM, without a hit: max response, negative = inhibition, hits mostly inhibitors; actives 0.43% (n = 200,000); AID 1478, 2009; active means well fitted curve in the direction sought with a large enough effect; inconclusive means small, poorly fitted or top-dose-only effect, or another doubt; inactive means no such curve, though single readings can be large; an effect the other way counts as inactive or inconclusive;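 further: plate controls were neutral wells for no effect and buffer without enzyme for full effect; nearly all actives have a fitted effect of over 40% in size; top concentration of the series not given in the record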
Target sequence (P25779 123-467 limits assumed): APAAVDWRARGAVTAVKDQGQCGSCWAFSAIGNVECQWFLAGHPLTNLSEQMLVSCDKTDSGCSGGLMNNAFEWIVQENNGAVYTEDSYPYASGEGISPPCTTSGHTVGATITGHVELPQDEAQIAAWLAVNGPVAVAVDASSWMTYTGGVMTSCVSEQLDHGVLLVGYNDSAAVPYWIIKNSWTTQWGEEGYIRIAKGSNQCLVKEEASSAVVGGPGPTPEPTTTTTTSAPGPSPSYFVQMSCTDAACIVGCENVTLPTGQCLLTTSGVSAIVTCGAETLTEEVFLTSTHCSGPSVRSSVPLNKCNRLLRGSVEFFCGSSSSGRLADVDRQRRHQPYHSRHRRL
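In this qHTS format, compounds are incubated with 1.5 nM cruzain for 15 min at room temperature before 2 uM Z-FR-AMC is added. Release of AMC is followed at 360/450 nm, and progress is taken as the 60 s fluorescence difference.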
2A StopGo – High Throughput Screening for Foot and Mouth Disease Virus Antivirals; human cells with a luciferase reporter of 2A StopGo recoding; control for the full effect not named in the record; Potency, µM (series often up to 57.9 µM), for the others: at the highest dose signal change, negative = less light; AID 1159524, 2015; actives 1.2% (n = 410,000); active = well fitted falling curve with a large enough effect; inconclusive = small, poorly fitted or top-dose-only effect; inactive = no such curve, though single readings can be large or run the other way; tested in HEK293T cells; further: on the % scale 0 is the no-effect control and ±100 the full control effect; nearly all actives have a fitted effect of over 45% in size; luciferase light after 4 h
RE007 growth inh – qHTS Assay for Inhibitors of the HIV-1 protein Vpr; S. pombe RE007 Vpr strain, BacTiter-Glo ATP luminescence, 24 h; control for the full effect not named in the record; Potency, µM (titrated, usually from 92.2 µM), for inactives: at the highest dose activity change, negative = less growth; actives 0.21% (n = 360,000); AID 651644, 2012; active = well fitted falling curve with a large enough effect; inconclusive = small, poorly fitted or top-dose-only effect; inactive = no such curve, though single readings can be large or run the other way;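 further: on the % scale 0 is the no-effect control and ±100 the full control effect; nearly all actives have a fitted effect of over 50% in size; the assay follows cell death caused by Vpr and the record does not say whether a fall means rescue or toxicity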
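Fission yeast strain RE007, carrying one chromosomally integrated HIV-1 vpr copy, was seeded at OD 0.01 in PMG+AL medium with 23 nL pinned compound. After 24 h at 30 °C and 99% humidity, viability was read by BacTiter-Glo luminescence.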
Marburg entry inh – qHTS for inhibitors of binding or entry into cells for Marburg Virus. Marburg virus pseudotyped entry inhibition, cell reporter; control for the full effect not named in the record; about a third of the inactives were read at about 46 µM. Potency, µM (doses to about 37.8 µM), for the others: at the highest dose activity change, negative = inhibition, hits mostly inhibitors. actives 1.8% (n = 300,000). AID 540276, 2011; active = well fitted inhibition curve with a large enough effect; inconclusive = small, poorly fitted or top-dose-only effect, or effect the other way; inactive = flat fitted curve, though single readings scatter; tested in HEK293 cells; about a fifth of its hits are not listed in these tables; further: on the % scale 0 is the no-effect control and ±100 the full control effect; luciferase read-out
NS1 function inh – qHTS Assay for Inhibitors of Influenza NS1 Protein Function; S. cerevisiae slowed by influenza A NS1, growth recovery by OD600; Potency, µM (titrated, usually from 46.1 µM), for inactives: top-dose activity, positive = more growth; actives 0.4% (n = 270,000); further: actives are rising curves; nearly all actives have a fitted effect of over 50% in size
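S. cerevisiae expressing influenza A NS1, grown in glucose, washed, then diluted 1:100 into pH 6.0 -URA galactose medium with 23 nl compound. Growth recovery read as OD600; NS1-free strain serves as control.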
Cruzain inh noDet – qHTS Assay for Promiscuous and Specific Inhibitors of Cruzain (without detergent); Cruzipain (Trypanosoma cruzi), P25779; purified cruzain, Z-FR-AMC fluorescence, no detergent; Potency, µM, inactives show max response, negative = inhibition, actives largely listed as inhibitors; actives 2.3% (n = 200,000); AID 1476, 2009; active means well fitted curve in the direction sought with a large enough effect; inconclusive means small, poorly fitted or top-dose-only effect, or another doubt; inactive means no such curve, though single readings can be large; an effect the other way counts as inactive or inconclusive;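 further: plate controls were enzyme without inhibitor for no effect and buffer without enzyme for full effect; nearly all actives have a fitted effect of over 40% in size; top concentration of the series not given in the record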
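Detergent-free condition (0.00005% Triton X-100) in acetate buffer pH 5.5 with DTT. 1.5 nM enzyme and compound were pre-mixed 15 min, then 2 uM Z-FR-AMC substrate added; reaction progress from fluorescence change between first and third reads (60 s).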
SARS PLP yeast – qHTS of Yeast-based Assay for SARS-CoV PLP | S. cerevisiae expressing SARS-CoV PLpro, growth rescue; control for the full effect not named in the record | Potency, µM (top dose mostly 32.9 µM), inactives show at the top dose activity, positive = growth rescue | actives 0.19% (n = 330,000) | AID 485353, 2010; further: 0% is about no effect; nearly all actives have a fitted effect of over 55% in size; growth read by luminescence after 48 h
Starred values were filed as active, the others as inactive; ? = inconclusive; · = no result given; & = joins results of further samples; [ ] = remark or other dose. Unless noted, the call rests on the fitted dose curve; in most records, active means well fitted rising curve with a large enough effect; inconclusive means small, poorly fitted or top-dose-only effect; inactive means no such curve, though single readings can be large or run the other way. Potency means the concentration at half of the fitted maximal effect.

SMILES	LASV entry inh	Cruzain Triton	2A StopGo	RE007 growth inh	Marburg entry inh	NS1 function inh	Cruzain inh noDet	SARS PLP yeast
CCC(C(=O)OCC(=O)NC(=O)c1ccccc1)c1ccccc1 (configuration not stated)	-5%	·	0%	-19%	7%	·	·	-13%
CCCCSCCCNC(=O)c1ccc(CS(=O)(=O)c2ccccc2OC)o1	?	·	-25%	-10%	9%[46.1 µM]	0%	·	1%
Cc1cc(NC(=O)c2ccc([N+](=O)[O-])cc2)n(C)n1	18%	·	19%	6%	16%[46.1 µM]	3%	·	0%
COC(=O)c1cn(Cc2cccnc2)c(=O)c2ccccc12	1%	·	-10%	22%	-20%[46.1 µM]	-4%	·	-4%
Cc1cc(C)cc(C(=O)Nc2nc3ccccc3[nH]2)c1	?	·	4%	-30%	?	-53%	·	-3%
CC(=O)OCC#CCSc1nc2ccccc2n1C	-1%	1.3%	0%	-7%	-2%	-33%	-3%	22µM*
CCOc1cccc(=NC2CCCCC2)c2c(C)[nH]c(C)c12	?	·	28µM*	3%	?	-6%	·	0%
OCCn1c(SC2CCCCC2)nc2ccccc21	22%	-1.4%	-12%	14%	6%	-7%	5%	-2%
Cc1ccc(SCCNC(=O)c2ccc([N+](=O)[O-])c(C)c2)cc1	-13%[46.1 µM]	·	-20%	0%	13%[46.1 µM]	-38%	·	-9%
CC12CCC(C(=O)Nc3cccnc3)(CC1=O)C2(C)C (configuration not stated)	?	-4.8%	-5%	-9%	11%	-6%	3%	0%
CN(C)/C=C(/C(=O)c1ccc(Cl)cc1)S(=O)(=O)c1ccccc1	?	2.4%	58%[activator]	-2%	-9%	17%	-4%	8%
CC[n+]1c(-c2ccc(C)cc2)csc1Nc1c(C)n(C)n(-c2ccccc2)c1=O	?	-2.5%	32µM*	1%	?	-4%	12%	-5%
O=C1NCCN1Cc1ccccc1F	2%	-7.1%	-7%	18%	-22%	11%	-3%	5%
COc1ccc(NC(=O)CCCc2c[nH]c3ccccc23)cc1OC	8%[46.1 µM]	-5.8%	5%	0%	7%[46.1 µM]	2%	3%	-21%
Cc1ccccc1NC(=O)Nc1ccccc1C(=O)NCc1ccccc1	19%	-3.8%	-18%	7%	2%[46.1 µM]	1%	-2%	4%
Nc1cccc2nc3ccccc3cc12	·	-8.1%	-14%	-10%[18.4 µM]	·	-43%	2%	-6%
Cc1ccc(S(=O)(=O)N2CCC(=O)N(C(COCc3cccc(C)c3)C(C)C)CC2)cc1 (configuration not stated)	-11%	-0.8%	-28%	-7%	-20%	-17%	?	6%
CC1CCc2sc(C(=O)NCC(C)(C)N3CCOCC3)cc2C1 (configuration not stated)	-8%	·	0%	2%	-4%	·	·	-4%
CNC(=O)ON(C(=O)NC)C1N(C)C(=S)SC1(C)C (configuration not stated)	-5%	0.4%	-27%	-3%	?	-75%	6%	-8%
O=C(Cc1ccc(S(=O)(=O)N2CCOCC2)s1)NC1CCCCC1	18%	·	-13%	16%	?	·	·	-1%
O=C(NCc1nnc(SC/C=C/c2ccccc2)o1)c1ccco1	-8%	-1.1%	8%	6%	10%	-14%	10%	11%
O=C(COc1ccccc1)N=C1SC2CS(=O)(=O)CC2N1c1cccc(F)c1 (configuration not stated)	·	·	7%	-7%	·	0%	·	0%
CCCCCn1c2nc3ccccc3nc2c2c(=O)n(CC(C)C)cnc21	-1%	4.8%	-18%	-12%	3%&3%[46.1 µM]	6%	5%	-2%
COc1ccc(NC(=O)CSc2nncn2C)cc1OC	31%	-1.9%	-1%	-1%	-5%	8%	2%	1%
Cc1onc(-c2ccccc2)c1C(=O)Nc1ccc2c(C)cc(=O)oc2c1	-9%	-5.1%	?	-12%	-12%	-4%	-8%	-2%

The results go on.
SMILES	LASV entry inh	Cruzain Triton	2A StopGo	RE007 growth inh	Marburg entry inh	NS1 function inh	Cruzain inh noDet	SARS PLP yeast
CCOC(=O)Cn1cc(C(=O)C(C)(C)C)c2ccccc21	·	·	4%	8%	·	-2%	·	-2%
CC(=O)c1cccc(NC(=O)CSCc2ccccc2)c1	15%	2.6%	43%[activator]	-7%	12%	-46%	0%	-8%
COc1ccccc1OCC(=O)NNC(=O)c1ccc2c(=O)n3c(nc2c1)CCC3	2%	·	-19%	0%	-2%	18%	·	5%
COC(C[C@H](O)[C@@H](C)[C@@H](O)COCc1ccccc1)OC	·	·	-3%	-15%	·	4%	·	1%
Cc1cc(N2C(=O)C(O)=C(C(=O)c3ccco3)C2c2ccc(Cl)cc2)no1 (configuration not stated)	·	·	-4%	13%	·	21%	·	1%
CCOc1ccc(CNC(=O)c2ccc(NC(=O)N3CCCCc4ccccc43)cc2)cc1	5%[46.1 µM]	-6.6%	-15%	·	·	·	6%	·
CCOC(=O)C1CCN(S(=O)(=O)c2c(C)n[nH]c2C)CC1	2%	1.4%	7%	6%	4%[46.1 µM]	-2%	-4%	3%
CC(C)c1ccc(N(CC(=O)NC(C)(C)C)C(=O)CCC(=O)Nc2nccs2)cc1	·	·	13%	2%	·	?	·	1%
COc1ccc(N2CCN(c3ccc(N)cc3C#N)CC2)cc1	-19%	-6.7%	-2%	-15%	1%	11%	?	-1%
COc1cc(C(=O)NCCSc2c(C)[nH]c3ccccc23)cc(OC)c1OC	-15%[46.1 µM]	-5.8%	-17%	·	-3%[46.1 µM]	·	-1%	·
O=C(Cn1c(=O)oc2cc(S(=O)(=O)N3CCc4ccccc43)ccc21)NC1CCCC1	·	2.2%	?	-3%	-1%	4%	-14%	-2%
CC(C)(C)c1ccc(OCC(=O)N/N=C/c2ccsc2)cc1	?	-8.8%	-1%	-29%	44%	-20%	6%	-9%
COC(=O)CN1C(=O)Nc2ccc(Br)cc2C1c1ccccc1Cl (configuration not stated)	9%	-9.9%	?	-4%	?	16%	?	-7%
O=C(NN=C1CCCC1)c1cccc(Br)c1	17%	·	10%	-6%	?	-1%	·	-6%
CC(C)CC(OC(=O)c1ccco1)C(=O)NC1CCCC1 (configuration not stated)	26%[46.1 µM]	·	-3%	-16%	12%[46.1 µM]	0%	·	1%
CCCCn1c(N)c(N(CC(C)C)C(=O)c2ccncc2)c(=O)[nH]c1=O	16%	·	-10%	6%	23%	·	·	-1%
Cc1ccc(NC(=O)Cn2cc(S(=O)(=O)N3CCCC3)c(S(=O)(=O)N3CCCC3)c2)cc1C	7%[46.1 µM]	-5.4%	-6%	·	·	·	21%	·
Cc1ccc(-c2[nH]c3ccccc3c2C(C[N+](=O)[O-])c2ccco2)cc1 (configuration not stated)	?	-2.9%	-29%	5%	?	5%	?	-22%
CCOc1cc(CNC(=O)c2ccc3nc(CCc4ccccc4)oc3c2)ccc1OC	?	-5.1%	-15%	·	·	·	?	·
O=C(CSCc1ccccc1)N/N=C/c1cc2c(cc1Br)OCO2	?	-5.0%	-7%	-22%	?	5%	-9%	7%
Cc1ccc(C)c(NC(=O)CCN2CC(C)OC(C)C2)c1 (configuration not stated)	25%	7.5%	-7%	2%	-12%	-1%	2%	-2%
COc1cc(C(C(=O)NC2CCCC2)N(Cc2ccccc2)C(=O)c2snc(C(N)=O)c2N)ccc1O (configuration not stated)	·	·	19%	-9%	?	8%	·	3%
COc1ccccc1CNC(=O)COC(=O)c1ccccc1SCC(=O)N1CCCC1	-11%	·	8%	-7%	-6%	·	·	1%
Cc1nn(-c2ccccc2)c(C)c1/C=N/NC(=O)c1cnccn1	·	·	16%	-10%	·	-1%	·	-1%
CC(=O)O[C@H]1CCC2C3CC[C@H]4[C@@H](O)[C@H](O)CC[C@]4(C)C3CC[C@@]21C (some centres not stated)	-8%[46.1 µM]	·	-17%	6%	-2%[46.1 µM]	·	·	·

Brought forward from above: 3 entries, followed by the next part.
SMILES	LASV entry inh	Cruzain Triton	2A StopGo	RE007 growth inh	Marburg entry inh	NS1 function inh	Cruzain inh noDet	SARS PLP yeast
COc1ccccc1CNC(=O)COC(=O)c1ccccc1SCC(=O)N1CCCC1	-11%	·	8%	-7%	-6%	·	·	1%
Cc1nn(-c2ccccc2)c(C)c1/C=N/NC(=O)c1cnccn1	·	·	16%	-10%	·	-1%	·	-1%
CC(=O)O[C@H]1CCC2C3CC[C@H]4[C@@H](O)[C@H](O)CC[C@]4(C)C3CC[C@@]21C (some centres not stated)	-8%[46.1 µM]	·	-17%	6%	-2%[46.1 µM]	·	·	·
OCCCCNCc1ccc(OCc2ccc(Cl)cc2Cl)cc1	?	-2.6%	·	4%	5.8µM*	-61%	-2%	-12%
O=C(CC1Oc2ccccc2NC1=O)NCCCN1CCCC1=O (configuration not stated)	·	1.5%	-21%	-1%	·	3%	-9%	-6%
CC(=O)c1c(C)[nH]c(C(=O)NCCc2ccc(Cl)cc2)c1C	·	·	5%	-12%	·	-5%	·	2%
Cc1nn2c(-c3ccncc3)ccnc2c1Cl	11%	·	-13%	5%	8%	·	·	1%
CCCn1nnnc1NC(=O)c1ccc(C)cc1Cl	·	3.7%	31%[activator]	-1%	2%	10%	5%	1%
Cc1ccccc1NC1=C(Cl)C(=O)OC1OC(C)C (configuration not stated)	2%	0.5%	9%	12%	11%	2%	12%	-7%
ON=Cc1cccn1-c1ccccc1	-1%	-1.9%	·	4%	1%	-2%	-1%	4%
c1ccc(C2OCC3(CO2)COC(c2ccccc2)OC3)cc1 (configuration not stated)	13%	5.8%	-16%	16%	28%	22%	4%	6%
OCC1(CCc2ccccc2)CCCN(CCCc2ccccc2)C1 (configuration not stated)	?	·	-18%	-6%	?	2%	·	3%
CC(=O)NC(Cc1ccc(F)cc1)C(=O)N1CCN(C(=O)NCc2ccccc2)CC1 (configuration not stated)	4%	0.3%	4%	-4%	0%	-3%	20%	10%
Clc1ncc(Cn2cccn2)s1	-1%[46.1 µM]	·	-1%	4%	-2%[46.1 µM]	3%	·	0%
